gsp ag – qHTS for Agonist of gsp, the Etiologic Mutation Responsible for Fibrous Dysplasia/McCune-Albright Syndrome: qHTS; Potency, µM (series often up to 76.9 µM), for the others: top-dose activation (cAMP increase), most hits filed as activators; AID 624287, 2012; 0.13% of 340,000 active; gsp mutant cells, cAMP HTRF, 30 min; control for the full effect not named in the record; active = well fitted activation curve with a large enough effect; inconclusive = small, poorly fitted or top-dose-only effect, or another doubt; inactive = no such curve, though single readings can be large or run the other way; cell line not stated here;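 further: phosphodiesterase inhibitor Ro 20-1724 added with compounds to block cAMP breakdown; potency means the concentration at half of the fitted maximal effect; nearly all actives have a fitted effect of over 60% in size; about a fifth of the inactives were tested at one dose only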
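Cells in DMEM/10% FBS with G418 were pretreated with compounds in DMSO plus […] (300 uM stock) for 30 min at 37C. cAMP was measured by HTRF (cAMP-d2 plus anti-cAMP antibody-K) after 30 min at room temperature.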
Sfp inh – qHTS Assay for Inhibitors of Bacillus subtilis Sfp phosphopantetheinyl transferase (PPTase). 4'-phosphopantetheinyl transferase ffp (Bacillus subtilis), Q9F4F7. Biochemical Sfp PPTase activity, qHTS. Potency, µM, without a hit: max response, negative = inhibition, most hits filed as inhibitors. 3.5% of 310,000 active; active means well fitted inhibition curve with a large enough effect; inconclusive means small, poorly fitted or top-dose-only effect, or another doubt; inactive means no such curve, though single readings can be large or run the other way;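 further: the enzyme is Sfp with the accession as filed and its product quenches rhodamine fluorescence; potency means the concentration at half of the fitted maximal effect; 0% = enzyme reaction without inhibitor and -100% = no enzyme wells; top concentration of the series not given in the record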
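Sfp 15 nM + cpd, 15 min RT; start w/ rhodamine-CoA 5 uM, BHQ-2-YbbR 12.5 uM (final); 50 mM Hepes pH 7.6, 10 mM MgCl2, 0.01% NP-40, 0.01% BSA; read 525/598 nm at 0 and 30 min.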
Menin-MLL FL inh – qHTS Assay for Inhibitors Targeting the Menin-MLL Interaction in MLL Related Leukemias: Competition With Fluorescein Labeled MLL-derived Peptide. Fluorescence polarization, fluorescein-MLL peptide displacement from menin. 290,000 tested, under 10 active. FP activity change, % at 61.4 µM. AID 1766, 2009; inconclusive = falling polarisation curve, or a change in total fluorescence; inactive = total fluorescence flat and polarisation flat or rising; no compound was filed as active; the % refers to the polarisation; negative = inhibition;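 further: % of control where 0% means no effect; inhibitors lower the polarisation; unlabelled MLL peptide was the positive control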
D2 potentiator – Beta-Arrestin HTS for Positive Allosteric Modulators of the Human D2 Dopamine Receptor: Potentiators; D(2) dopamine receptor (Homo sapiens), P14416; DiscoveRx D2 beta-arrestin cells, luminescence, 90 min; 100% = 57 uM dopamine signal; potentiation, % (no concentration beside the values); 0.23% of 360,000 active; active = potentiation of 50% or more; inconclusive = 30% to 50%; inactive = 30% or less;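 further: compound concentration not given in the record; tested on top of an EC20 dose of dopamine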
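D2 cells co-treated with compound plus 50 nM dopamine (EC20) for 90 min at 37 deg C to detect potentiation. Beta-arrestin recruitment was read as enzyme-fragment luminescence after 1 h at ambient temperature. Full response was set by 57 uM dopamine.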
gsp antag – qHTS for Antagonists of gsp, the Etiologic Mutation Responsible for Fibrous Dysplasia/McCune-Albright Syndrome: qHTS; 0.4% of 340,000 active; Potency, µM (series often up to 76.9 µM), without a hit: top-dose activity change, negative = inhibition, most hits filed as inhibitors; gsp-mutant cells, cAMP HTRF, 30 min; control for the full effect not named in the record; active = falling curve of any shape with a large fitted effect; inconclusive = falling curve, mostly with a smaller effect; inactive = flat or rising curve; cell line not stated here;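 further: intracellular cAMP measured with PDE inhibitor Ro 20-1724 present during compound exposure; potency means the concentration at half of the fitted maximal effect; on the % scale 0 is the no-effect control and ±100 the full control effect; nearly all actives have a fitted effect of over 65% in size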
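HTRF cAMP read-out (cAMP-d2 plus anti-cAMP antibody-K in lysis buffer, 30 min RT). Before lysis, cells are exposed to compounds with […] for 30 min at 37C in DPBS containing Ca/Mg, BSA and Tween 20.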
TRPV1 potentiator – HTS Assay for Compounds that Act as Potentiators of the Vanilloid Receptor 1. Transient receptor potential cation channel subfamily V member 1 (Homo sapiens), Q8NER1. 0.02% of 320,000 active. TRPV1-expressing cells, Fluo-8 calcium influx, capsaicin EC20 potentiation; host cell line not named in the record; control for the full effect not named in the record. potentiation, % at 8.33 µM; active means potentiation above 80%; inconclusive means 30% to 80%; inactive means below 30%; further: 0% is about no effect
Target sequence (Q8NER1 whole entry, looked up): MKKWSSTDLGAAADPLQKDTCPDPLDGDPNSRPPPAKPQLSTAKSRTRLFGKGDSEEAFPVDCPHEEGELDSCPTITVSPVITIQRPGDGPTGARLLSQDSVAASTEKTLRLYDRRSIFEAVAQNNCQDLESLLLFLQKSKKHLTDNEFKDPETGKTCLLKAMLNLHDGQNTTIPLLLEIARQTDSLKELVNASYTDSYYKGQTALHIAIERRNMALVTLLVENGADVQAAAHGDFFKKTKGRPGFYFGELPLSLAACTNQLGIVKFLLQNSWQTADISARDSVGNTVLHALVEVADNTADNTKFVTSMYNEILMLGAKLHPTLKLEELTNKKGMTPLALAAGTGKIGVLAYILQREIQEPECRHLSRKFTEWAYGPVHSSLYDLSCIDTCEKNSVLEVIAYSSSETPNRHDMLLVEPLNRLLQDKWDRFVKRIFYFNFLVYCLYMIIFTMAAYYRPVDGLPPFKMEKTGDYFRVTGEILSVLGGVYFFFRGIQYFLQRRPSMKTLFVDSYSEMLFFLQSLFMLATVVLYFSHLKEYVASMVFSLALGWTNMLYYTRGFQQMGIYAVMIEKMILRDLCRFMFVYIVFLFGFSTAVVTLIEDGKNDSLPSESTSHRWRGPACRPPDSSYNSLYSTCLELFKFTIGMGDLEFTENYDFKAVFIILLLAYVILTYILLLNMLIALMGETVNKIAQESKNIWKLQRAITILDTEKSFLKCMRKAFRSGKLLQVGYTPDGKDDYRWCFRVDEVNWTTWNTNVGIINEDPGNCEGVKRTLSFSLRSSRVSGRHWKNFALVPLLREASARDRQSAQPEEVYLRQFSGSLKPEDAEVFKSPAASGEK
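Fluo-8 calcium influx in TRPV1-expressing cells, kinetic read (ex 480/em 520 nm). Compound added and read 3 min for agonist activity, followed by capsaicin at EC20 final and 2 min further read for enhancement.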
ClpP mod – qHTS Assay for Activators of ClpP. purified B. subtilis ClpP, FRET peptide cleavage, 20 min. Potency, µM (doses to about 57.5 µM), inactives show top-dose activity change, negative = active. ATP-dependent Clp protease proteolytic subunit (Bacillus subtilis (strain 168)), P80244. 1.9% of 340,000 active; active = well fitted falling curve with a large enough effect; inconclusive = small, poorly fitted or top-dose-only effect; inactive = no such curve, though single readings can be large or run the other way; further: potency means the concentration at half of the fitted maximal effect; the source files actives as falling curves though it sought activators and does not explain the sign; nearly all actives have a fitted effect of over 65% in size; many hits overshoot -100%
Target sequence (P80244 whole entry, looked up): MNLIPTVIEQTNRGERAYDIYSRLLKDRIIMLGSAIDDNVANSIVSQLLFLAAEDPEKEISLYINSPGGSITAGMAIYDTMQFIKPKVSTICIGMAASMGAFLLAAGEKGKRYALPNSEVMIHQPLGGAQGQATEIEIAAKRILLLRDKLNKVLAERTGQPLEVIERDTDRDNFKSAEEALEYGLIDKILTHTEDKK
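Buffer: 100 mM Tris/HCl pH8, 100 mM KCl, 0.05% low protease BSA, 2.5% glycerol, 0.01% Tween-20. ClpP 10 microg/mL final; 20 min RT; delta FRET normalized to ADEP and DMSO controls.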
Active calls of the source: *; ? = inconclusive; . = no result given; [ ] = remark or other dose.

SMILES	gsp ag	Sfp inh	Menin-MLL FL inh	D2 potentiator	gsp antag	TRPV1 potentiator	ClpP mod
Cc1cc(C)nc(SCCC(=O)Nc2ccccc2)n1	-16.0%	10.6%	-0.4	-8.6	-9.4%	1.5	-1.8%
COc1ccc2oc(C(=O)NNC(=O)c3ccc(F)cc3)c(C)c2c1	-2.0%	.	.	-11.5	-1.6%	-2.2	?
Cc1csc(CN(C)C(=O)CC2C(=O)NCCN2Cc2ccccc2C)n1 (stereo not given)	-37.8%[inhibitor]	.	.	-7.4	.	.	-2.4%
COc1ccc(CNc2nc3ccc(C)cc3s2)c(OC)c1OC	?	2.3%	-0.7	0.2	-5.9%	?	-0.9%
CCOC(=O)c1c(C)[nH]c(C)c1C(=O)COC(=O)C1CCCN1S(=O)(=O)c1ccccc1F (stereo not given)	-28.6%	1.0%	5.2	8.8	-7.9%	2.8	-2.9%
O=C1CCCN1C(=O)CCC(=O)N1CCCC1=O	3.5%	18.6%	0.7	-9.3	10.3%	-8.9	-1.4%
CN(CC(=O)NCc1ccc(F)cc1)S(=O)(=O)c1ccc2c(c1)n(C)c(=O)c(=O)n2C	53.0%	13.0%	.	-3.1	-17.4%	5.6	-10.8%
CC(C)[C@H](NC(=O)[C@@H]1CSC2c3ccccc3C(=O)N21)C(=O)NC1CCCCC1 (stereo not given in full)	?	0.4%	.	-6.9	3.7%	7.7	-0.9%
O=C(CCC(=O)c1cccs1)NCc1cccnc1	7.4%[15.4 µM]	22.2%	4.1	-3.8	10.0%	7.3	.
CCc1c(O)nc(SCC(=O)Nc2c(C)cccc2C)n(-c2ccc(F)cc2)c1=O	-25.3%	.	.	-9.7	.	.	-0.2%
CCOC(=O)C1=C(COC(=O)Cc2ccc(Cl)cc2)NC(=O)NC1C (stereo not given)	-13.8%	.	.	3.0	-1.5%	2.6	-0.9%
Cc1ccc(Nc2nnc(SCC(=O)Nc3ncc(C(F)(F)F)cc3Cl)s2)cc1	-4.6%	13.6%	2.5	-5.3	?	-1.3	2.1%
O=C(COC(=O)c1cccc(Oc2ccccc2)c1)NCc1ccco1	-1.7%	9.2%	0.5	-1.4	-6.6%	-21.7	0.2%
C[C@]1(OC(=O)/C=C/c2ccccc2)C[C@@H](O)[C@]2(O)C=CO[C@@H](O[C@@H]3O[C@H](CO)[C@@H](O)[C@H](O)[C@H]3O)[C@@H]21	.	.	.	0.3	-3.9%	-4.8	2.1%
CC(=O)Nc1cccc(Oc2cc(C#N)c(C#N)cc2N2CCOCC2)c1	6.3%	1.5%	5.9	-4.0	1.7%	-3.8	0.6%
Cn1c(SCc2ccccc2F)nnc1-c1cnccn1	-10.0%	12.4%	5.0	-2.6	-6.2%	-6.2	-3.3%
CCOC(=O)N1CCN(Cc2nc3cc(NC(=O)CC)ccc3n2C)CC1	21.0%[15.4 µM]	-0.3%	-0.5	-1.9	-5.3%	-2.9	-2.7%
COc1ccccc1NC(=O)N(C)C[C@H]1Oc2ncc(C#CCN(C)C)cc2C(=O)N([C@H](C)CO)C[C@H]1C	16.0%	.	.	-0.1	.	.	-2.3%
CCOc1cccc(C(=O)NC(=S)NCc2cccnc2)c1	0.0%	1.3%	5.5	-6.4	-2.7%	11.2	-1.2%
NS(=O)(=O)c1ccc(NC(=O)c2ccc(OCC3CCCO3)cc2)cc1 (stereo not given)	22.4%	.	.	-7.1	4.5%	.	.

Quoted at random: 2 records from the list, in no set order.
SMILES	gsp ag	Sfp inh	Menin-MLL FL inh	D2 potentiator	gsp antag	TRPV1 potentiator	ClpP mod
C[C@]1(OC(=O)/C=C/c2ccccc2)C[C@@H](O)[C@]2(O)C=CO[C@@H](O[C@@H]3O[C@H](CO)[C@@H](O)[C@H](O)[C@H]3O)[C@@H]21	.	.	.	0.3	-3.9%	-4.8	2.1%
Cc1ccc(Nc2nnc(SCC(=O)Nc3ncc(C(F)(F)F)cc3Cl)s2)cc1	-4.6%	13.6%	2.5	-5.3	?	-1.3	2.1%

4 entries already listed, ordered by length of the SMILES, ascending.
SMILES	gsp ag	Sfp inh	Menin-MLL FL inh	D2 potentiator	gsp antag	TRPV1 potentiator	ClpP mod
Cn1c(SCc2ccccc2F)nnc1-c1cnccn1	-10.0%	12.4%	5.0	-2.6	-6.2%	-6.2	-3.3%
CCOc1cccc(C(=O)NC(=S)NCc2cccnc2)c1	0.0%	1.3%	5.5	-6.4	-2.7%	11.2	-1.2%
COc1ccccc1NC(=O)N(C)C[C@H]1Oc2ncc(C#CCN(C)C)cc2C(=O)N([C@H](C)CO)C[C@H]1C	16.0%	.	.	-0.1	.	.	-2.3%
C[C@]1(OC(=O)/C=C/c2ccccc2)C[C@@H](O)[C@]2(O)C=CO[C@@H](O[C@@H]3O[C@H](CO)[C@@H](O)[C@H](O)[C@H]3O)[C@@H]21	.	.	.	0.3	-3.9%	-4.8	2.1%

Continued.
SMILES	gsp ag	Sfp inh	Menin-MLL FL inh	D2 potentiator	gsp antag	TRPV1 potentiator	ClpP mod
CN(C)Cc1ccccc1C(O)(c1ccccc1)c1ccccc1	5.7%[15.4 µM]	2.5%	3.1	-12.9	-4.2%	-16.6	1.0%
CCN(CC)S(=O)(=O)c1ccc(C)c(NC(=O)CN2CCN(C)CC2)c1	4.1%	?	1.1	-14.4	6.8%	4.8	-1.1%
COc1ccc(C(=O)NNC(=O)Cn2nc(C)cc2C)cc1S(=O)(=O)N1CCOCC1	-11.4%	.	.	-9.3	.	.	1.0%
CN(C=O)c1cc([N+](=O)[O-])ccc1OCc1ccccc1	3.4%	.	.	-8.7	-11.2%	.	0.1%
Cc1ccn(CCC(=O)N2CCCC(CCC(=O)NCc3ccc(F)c(F)c3)C2)n1 (stereo not given)	-35.9%[inhibitor]	2.2%	-1.6	-4.7	-1.3%	-14.2	.
Cc1ccc(/C=C/C(=O)c2ccc(C)cc2)cc1	?	-2.7%	6.6	6.8	6.7%	4.4	-0.4%
CC(C)c1ccc2oc(=O)cc(CN3CCN(c4ccc(F)cc4)CC3)c2c1	3.7%	-7.5%	5.8	-4.6	35.5µM*	-1.0	-1.2%
COc1ccc(OCCSc2ncnc3nc[nH]c23)cc1	-4.3%	-1.5%	3.4	-0.1	-5.1%	16.7	-3.3%
Cc1ccc(C(=O)N/N=C\c2ccc([N+](=O)[O-])s2)cn1	13.7%	3.4%	-3.9	?	9.6%	2.9	0.4%
O=C(CCCn1c(SCC(=O)NCC2CCCO2)nc2ccccc2c1=O)NCC1CCCO1 (stereo not given)	?	7.2%	-1.3	6.3	-25.5%	3.0	-0.3%
CCN(CCNC(=O)C1CCCN(Cc2nc(-c3ccc(OC)cc3)oc2C)C1)c1ccccc1 (stereo not given)	-22.3%	?	0.5	-16.3	-11.8%	12.0	-2.8%
O=C(NCc1cccs1)c1ccc([N+](=O)[O-])cc1Cl	-7.0%	-3.4%	-0.9	9.1	5.1%	-1.9	1.6%
Cc1sc2nc(CN3CCN(S(=O)(=O)c4cccc5nonc45)CC3)[nH]c(=O)c2c1C	-9.2%	9.8%	0.0	-4.6	6.7%	-8.6	-1.9%
CCC1S/C(=N/N=C/c2ccco2)N(c2ccc(F)cc2)C1=O (stereo not given)	-6.9%	8.5%	1.5	-3.1	7.9%	-10.8	-2.0%
Cc1nn(C)cc1S(=O)(=O)N1CCN(c2ccccc2)CC1	1.1%	11.2%	-3.7	-22.0	-11.4%	-13.0	-0.7%
Cc1cccc(C)c1NC(=O)Cn1nnnc1N	11.1%	18.9%	-1.8	-1.0	12.7%	5.4	0.0%
N=c1c(C(=O)NCc2ccc(F)cc2)cc2c(=O)n3ccccc3nc2n1Cc1ccco1	-0.4%	-6.2%	-1.3	-15.3	6.2%	-35.3	-15.1%
Cc1cccc2c(N=Nc3ccc(S(=O)(=O)Nc4cccc(Cl)c4)cc3[N+](=O)[O-])c(O)[nH]c12	-45.3%[inhibitor]	16.9%	0.4	-2.4	3.4%	-3.3	1.1%
Cc1cccc(OCC(=O)Nc2cccc(C(=O)NCC(C)C)c2)c1	10.5%[15.4 µM]	-9.2%	0.4	-1.0	-32.7%	10.8	-0.6%
Cc1ccc(Cl)cc1NC(=O)CON=C(N)c1ccccc1	-33.7%[15.4 µM]	.	.	-0.9	-0.5%	-8.2	.
Cc1ccc(NC(=O)CSc2nnc(Cc3ccccc3)o2)cc1	-21.5%[15.4 µM]	8.4%	-3.8	-10.0	-3.3%	-3.8	.
CCCCc1cc(=O)oc2cc(OCC(=O)NCCN3CCOCC3)c(Cl)cc12	4.9%	4.5%	.	-18.6	-8.3%	5.1	4.2%
CC(=O)N/C(=C\c1ccccc1)C(=O)NCc1ccc2c(c1)OCO2	-54.4%[inhibitor]	1.3%	-1.2	-7.1	3.8%	1.2	-0.6%
C=CCSc1nc(C)c(CC=C)c(=O)[nH]1	-19.0%	1.2%	1.8	-4.5	2.7%	5.8	-0.4%
O=C(Nc1cccc(S(=O)(=O)N2CCOCC2)c1)c1cc(=O)[nH]c2ccccc12	16.2%	.	.	-4.4	20.3%	.	-12.7%
O=C(NC(c1ccccc1)C(Cl)Cl)c1ccccc1 (stereo not given)	-6.2%[15.4 µM]	9.7%	4.8	-12.3	13.3%	-3.6	1.0%
C=CCc1ccc(OCCCOc2ccc(C)cc2OC)c(OC)c1	?	-0.9%	0.7	-11.6	4.0%	2.3	1.9%
CCCNC(=O)c1ccccc1NC(=O)c1ccc(CSc2ccccc2)cc1	-41.2%[inhibitor]	23.7%	0.4	5.4	-13.8%	7.1	?
COc1cc(C(=O)OCc2cccc(S(=O)(=O)N3CCOCC3)c2)ccc1OCC(C)C	5.4%	.	.	0.7	-11.7%	4.5	-7.5%
O=C(O)COc1ccccc1/C=C1\SC(=O)N(Cc2ccc(F)cc2)C1=O	?	-4.0%	-0.1	7.6	-17.6%	4.6	.

Screening data deposited in PubChem by National Center for Advancing Translational Sciences (NCATS).
